Compound activity (PubChem BioAssay)
Hck Nef HTS – human Hck-Nef kinase inhibition; actives 0.68% (n = 220,000); P08631; Recombinant Hck-YEEI plus Nef, Z-Lyte FRET kinase assay; inhibition, % at 20 µM;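 active means Hck-Nef kinase inhibition above about 50%, limit read from the data; inactive means inhibition below that limit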;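 further: 0% = DMSO with Hck plus Nef and 100% = Hck alone without Nef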
Wee1 stabilizer – inhibitors of human Wee1 degradation; HeLa Luc-Wee1K328M stability, luciferase luminescence; 100% = proteasome inhibitor MG132 effect; actives 1.2% (n = 220,000); reporter increase, % at 5 µM;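 active means activation above the mean of all tested compounds plus 3 SD, set per screening run, cut at about 8.8% in these data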;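 further: cells exposed to compound for 20 h before luminescence read; 0% = DMSO alone and 100% = MG132 at 30 µM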
KLK5 inh – kallikrein 5 (human) inhibition. recombinant hK5, fluorogenic AMC substrate cleavage. inhibition, % at 5 µM. actives 0.59% (n = 210,000). AID 873;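 active means inhibition of 40% or more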;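 further: 0% = enzyme controls without compound and 100% = no-enzyme blanks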
Target sequence (Q9Y337 67-293 limits assumed): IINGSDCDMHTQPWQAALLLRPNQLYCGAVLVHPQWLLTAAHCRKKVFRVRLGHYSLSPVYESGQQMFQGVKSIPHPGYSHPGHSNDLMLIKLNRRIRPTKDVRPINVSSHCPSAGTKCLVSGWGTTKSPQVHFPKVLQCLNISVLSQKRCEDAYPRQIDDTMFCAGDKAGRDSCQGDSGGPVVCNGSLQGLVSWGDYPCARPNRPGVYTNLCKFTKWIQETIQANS
14-3-3 Bad inh – disrupts binding of bovine 14-3-3 zeta to phospho-Bad peptide; actives 0.71% (n = 220,000); P63103; TR-FRET 14-3-3zeta/Dy647-pBad peptide displacement, 1 h; inhibition, % at 21.7 µM; AID 781;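 active means inhibition above about 70%, limit read from the data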;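 further: 0% = full 14-3-3 plus peptide FRET controls and 100% = background without 14-3-3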
Target sequence (P63103 whole entry, looked up): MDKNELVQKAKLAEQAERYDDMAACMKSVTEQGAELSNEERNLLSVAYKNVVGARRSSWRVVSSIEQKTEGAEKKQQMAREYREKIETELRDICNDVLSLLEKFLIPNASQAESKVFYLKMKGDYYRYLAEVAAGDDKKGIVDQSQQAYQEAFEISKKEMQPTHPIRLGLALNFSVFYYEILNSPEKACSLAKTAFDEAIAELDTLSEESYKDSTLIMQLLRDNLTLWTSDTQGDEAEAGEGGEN
Thrombin inh – blocks human thrombin protease activity; AID 1046; alpha-thrombin, Boc-VPR-AMC fluorogenic substrate cleavage; inhibition, % at 5 µM; actives 0.26% (n = 220,000);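 active means inhibition at or above 40%; inactive means inhibition below 40%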;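 further: 0% = enzyme with no compound and 100% = wells without enzyme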
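Material: human alpha-thrombin protein; Also added: Boc-VPR-AMC substrate, 15 µM final; Timing: enzyme reaction carried out at room temperature; Signal: fluorescence, ex 355 nm, em 460 nm; Measure: % inhibition of thrombin; Controls: enzyme without compound as high, wells lacking enzyme as low.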
* marks the source's active call; other numbers are inactive results; / = not tested or not shown; [ ] = another dose, or the depositor's remark. The list is partial; rates above refer to the full screens.

Short keys – A = Hck Nef HTS; B = Wee1 stabilizer; C = KLK5 inh; D = 14-3-3 Bad inh; E = Thrombin inh
> O=C(Cn1cnc2sc3c(c2c1=O)CCCC3)NCCC(=O)N1CCC2(CC1)OCCO2
  A: -0.1	B: 1.3	C: 1.7	D: 2.6	E: 1.9
> O=c1c2ccccc2nc(-c2ccc(-c3ccccc3)cc2)n1-c1ccncc1
  A: -1.1	B: 3.6	C: -11.5	D: -9.6	E: 1.2
> CCOC(=O)C1=C(N)OC2=C(C(=O)CCC2)[C@]12C(=O)N(CC(N)=O)c1ccccc12
  A: -0.6	B: -3.2	C: -5.8	D: -6.4	E: -8.2
> CCN1CCN(c2nc3ccccc3s2)CC1
  A: -0.6	B: 15.2*	C: -24.3	D: -6.9	E: 1.4
> CCCCCn1c(N)c(C(=O)NCc2cccs2)c2nc3ccccc3nc21
  A: 19.4	B: 4.4	C: -112.5	D: 5.9	E: -2.9
> O=P(C(c1ccc2c(c1)OCO2)N1CCOCC1)(N1CCOCC1)N1CCOCC1 (centres undefined)
  A: -1.1	B: 0.2	C: 0.1	D: -18.7	E: -1.8
> Cc1cccc(NC(N)=S)c1
  A: 2.7	B: -2.1	C: -2.6	D: -2.1	E: 5.1
> CCCCOC(=O)C1=C(N)OC2=C(C(=O)CCC2)[C@]12C(=O)N(C)c1ccccc12
  A: -1.1	B: -0.9	C: -27.4	D: -11.1	E: 1.9
> C=C(C)CSc1nnc([C@@H](N)Cc2c[nH]c3ccccc23)o1
  A: 1.2	B: 0.2	C: 2.7	D: 46.5[fluorescence artefact?]	E: 1.3
> CCOC(=O)N(c1ccccc1)P1(=S)OCC(C)O1 (centres undefined)
  A: 3.8	B: -0.9	C: -1.9	D: -12.4	E: 2.4
> O=[N+]([O-])c1ccc(N2CCNCC2)cc1NCC1CCCO1 (centres undefined)
  A: 6.3	B: -3.2	C: -29.8	D: -14.0	E: -3.6
> CCCC(=O)NC(Oc1ccc(Cl)cc1Cl)C(Cl)(Cl)Cl (centres undefined)
  A: 1.6	B: -1.0	C: 18.2	D: 87.6*	E: -6.0
> CN[C@H](C)[C@H](O)c1ccccc1
  A: /	B: -2.9	C: /	D: -0.3	E: /
> OC(Cn1c2ccccc2c2ccccc21)C[n+]1cccc2ccccc21 (centres undefined)
  A: -1.3	B: -2.5	C: 5.8	D: 6.8	E: -0.1
> CC(C)CCC1(CN2CCCC2=O)C(=O)NC(=O)NC1=O
  A: 1.0	B: 2.1	C: -4.1	D: -1.0	E: -8.6
> CCOC(=O)C1=C(N)OC2=C(C(=O)CCC2)C12C(=O)N1c3c(ccc(C)c32)C(C)=CC1(C)C (centres undefined)
  A: -3.4	B: 3.9	C: -25.9	D: 16.1	E: -0.4
> O=[N+]([O-])c1ccc(C2C3C(c4ccccc4)=NC4(CCCCC4)N32)cc1 (centres undefined)
  A: -0.3	B: -0.2	C: 6.7	D: 2.2	E: 4.5
> CN1CCN(c2nc(N(C)C)oc(=O)c2C#N)CC1
  A: 0.3	B: 0.8	C: 5.1	D: 8.3	E: -2.5
> CCOC(=O)C1=C(N)OC2=C(C(=O)CCC2)C12C(=O)Nc1ccccc12 (centres undefined)
  A: 1.1	B: -1.4	C: 19.8	D: -0.3	E: -2.0
> CCc1ccc(NC(=O)CN2CC(c3ccccc3)CC2=O)cc1 (centres undefined)
  A: 21.9	B: -1.8	C: 4.1	D: 7.7	E: 0.5

3 compounds from above, limited to KLK5 inh, Thrombin inh and Hck Nef HTS.
Molecule	KLK5 inh	Thrombin inh	Hck Nef HTS
O=P(C(c1ccc2c(c1)OCO2)N1CCOCC1)(N1CCOCC1)N1CCOCC1 (centres undefined)	0.1	-1.8	-1.1
CCCCCn1c(N)c(C(=O)NCc2cccs2)c2nc3ccccc3nc21	-112.5	-2.9	19.4
OC(Cn1c2ccccc2c2ccccc21)C[n+]1cccc2ccccc21 (centres undefined)	5.8	-0.1	-1.3

Among those listed so far, these have a nitro group on carbon:
Short keys – A = Hck Nef HTS; B = Wee1 stabilizer; C = KLK5 inh; D = 14-3-3 Bad inh; E = Thrombin inh
> O=[N+]([O-])c1ccc(N2CCNCC2)cc1NCC1CCCO1 (centres undefined)
  A: 6.3	B: -3.2	C: -29.8	D: -14.0	E: -3.6
> O=[N+]([O-])c1ccc(C2C3C(c4ccccc4)=NC4(CCCCC4)N32)cc1 (centres undefined)
  A: -0.3	B: -0.2	C: 6.7	D: 2.2	E: 4.5

A second format for 2 compounds above.
Values run as follows: Hck Nef HTS | Wee1 stabilizer | KLK5 inh | 14-3-3 Bad inh | Thrombin inh
CC(C)CCC1(CN2CCCC2=O)C(=O)NC(=O)NC1=O
    1.0 | 2.1 | -4.1 | -1.0 | -8.6
CCOC(=O)C1=C(N)OC2=C(C(=O)CCC2)C12C(=O)N1c3c(ccc(C)c32)C(C)=CC1(C)C (centres undefined)
    -3.4 | 3.9 | -25.9 | 16.1 | -0.4
